# Bioassay records (PubChem BioAssay)
# HSD17B inhib: HSD17B dehydrogenase inhibition | Potency, µM (top dose mostly 57.1 µM), without a hit: at the top dose activity change, negative = inhibition, most hits filed as inhibitors | Q99714 | recombinant HSD17B10, NADH fluorescence kinetic; many of its hits are not listed in these tables | actives 7.6% (n = 75,000) | AID 893; active means well fitted inhibition curve with a large enough effect; inconclusive means small, poorly fitted or top-dose-only effect; inactive means no such curve, though single readings can be large or run the other way;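 further: the protocol describes HADH2 (HSD17B10) and not the HSD17B4 of the title; nearly all actives have a fitted effect of over 70% in size; most hits overshoot -100% by far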
#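 His-tagged E. coli-expressed HADH2 at 20 nM in 100 mM Tris-HCl pH 9.0 with 0.01 % Tween-20, preincubated 15 min with compound at room temperature. Reaction with 1 mM NAD+ and 90 uM beta-hydroxybutyryl coenzyme A; NADH fluorescence (360/450 nm) read kinetically over 4 min, last minus first point.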
# Active calls of the source: *; ? = inconclusive; [ ] = another dose, or the depositor's remark. On the % scale 0 is the no-effect control and ±100 the full control effect; potency means the concentration at half of the fitted maximal effect. The list is partial; the hit share may differ from the screen's.
# Preview (four entries):
SMILES,HSD17B inhib
COc1ccccc1CN1C(=O)c2ccncc2C1=O,14%
O=C(CN1CCN(C2CCCCC2)CC1)NCCC1=CCCCC1,0%
Cc1nn(Cc2ccccc2)c2sc(C(=O)N3CCN(Cc4ccc5c(c4)OCO5)CC3)cc12,13%
NCC(=O)Nc1ccc(Cl)cc1C(=O)c1ccc[nH]1,12%[11.4 µM]

# The whole of this part, repeating the preview:
SMILES,HSD17B inhib
COc1ccccc1CN1C(=O)c2ccncc2C1=O,14%
O=C(CN1CCN(C2CCCCC2)CC1)NCCC1=CCCCC1,0%
Cc1nn(Cc2ccccc2)c2sc(C(=O)N3CCN(Cc4ccc5c(c4)OCO5)CC3)cc12,13%
NCC(=O)Nc1ccc(Cl)cc1C(=O)c1ccc[nH]1,12%[11.4 µM]
CN(C)C(=O)CN1C(=O)C2CC=C(Cl)CC2C1=O (centres undefined),6%
COC(=O)CN(C#N)c1nc(SC)nc(N(C)C)n1,-10%
O=c1[nH]c(-c2cccnc2)nc2ccccc12,-3%
Clc1cc(Cl)c2nc(N3CCCC3)sc2c1,-9%
Cc1nc2nc[nH]n2c(=O)c1CCC(C)C,10%
CC1Cn2c(nc3c2c(=O)[nH]c(=O)n3C)O1 (centres undefined),-6%
COCCNC(=O)COc1cc(=O)n(C)c2ccccc12,11%
CN(C)C(=O)c1ccc(-c2cncnc2-n2ccnc2)cc1,-5%
COc1cccc(CNC(=O)CCCNS(=O)(=O)c2cccs2)c1,2%
CCCC(=O)NCCSC,11%
O=C(NCCC1=CCCCC1)c1ccc(Br)o1,-14%
CCOC(=O)c1c(C)[nH]c(NC(=O)N2CCOCC2)c1C,4%
Cc1cc(C)nc(N2CCCC(C(=O)NC3CCCC3)C2)n1 (centres undefined),?
CCNS(=O)(=O)c1ccc(NC(=O)Nc2cccc(OC)c2)cc1,-26%
Cc1cc2ncn(CC(=O)O)c2cc1C,-4%[11.4 µM]
O=C(Nc1ccc(O)cc1)c1cc2n(n1)C(C(F)(F)F)CC(c1ccco1)N2 (centres undefined),-6%
CCn1ncc(C2=NOC(C(=O)Nc3c(C)n(C)n(-c4ccccc4)c3=O)C2)c1C (centres undefined),-2%
CCCC(=O)Nc1nc(-c2ccc3c(c2)OCCO3)cs1,-20%
CC(C)OC(=O)CSc1nc(N)c(C#N)c(-c2cccs2)c1C#N,?
COc1ccccc1N1C(=O)CC(Sc2ncccc2C(=O)O)C1=O (centres undefined),-11%
CCN(C(=O)CCc1nc(-c2ccc(OC)cc2)no1)c1cc(OC)ccc1OC,1%
Cc1c(C(O)CN2CCN(Cc3ccc4c(c3)OCO4)CC2)c2ccccc2n1C (centres undefined),0%
COc1cc(-c2nc(S(=O)(=O)c3ccc(Cl)cc3)c(N3CCOCC3)o2)cc(OC)c1OC,?
CCCC(C(=O)NC1CCCC1)N(CCCN1CCOCC1)C(=O)c1snc(C(N)=O)c1N (centres undefined),32µM*
Cc1ccc(CCN2CC(C(=O)NCCCN3CCOCC3)CC2=O)cc1 (centres undefined),3%
CCOc1ccccc1C(=O)N1CCC(n2nnc3cc(C)ccc32)CC1,2.5µM*
O=C(NCc1ccc(Cl)cc1)C1CCCN(S(=O)(=O)c2cnc[nH]2)C1 (centres undefined),-1%
CN(C)CCNC(=O)c1ccc(Cl)s1,3%
COc1ccc(N2Cc3cccc(C(=O)O)c3C2=O)cc1,?
COc1cccc(Cn2c(=O)c(-c3cn(C)c4ccccc34)nc3cnc(OC)nc32)c1,-12%
O=C(CC1(O)C(=O)Nc2ccccc21)c1ccc2c(c1)OCO2 (centres undefined),6%
CCC(=O)N1CCc2cc(S(=O)(=O)NC(C(=O)NCc3ccc(C)cc3)C(C)C)ccc21 (centres undefined),5%
CCOC(=O)N1CCN(C(=O)C2CCN(C(=O)c3cc4sccc4n3CC)CC2)CC1,1%
CC(C)(C)N=C1NC(=NC(C)(C)C)c2ccccc21,7%
COC(=O)[C@@H]1O[C@@H](c2c(OC)c(OC)c(C)c(OC)c2OC)[C@H](C)[C@@H](O)[C@@H]1C,0%[11.4 µM]
CCOC(=O)c1cc2occc2n1CC(=O)N1CCN(C(=O)c2ccco2)CC1,3%
Cc1ccc(OCc2nc(-c3ccccc3)no2)c(C)c1,-2%
COc1ccc(Nc2oc(COc3ccccc3F)nc2C#N)cc1,3%
COc1ccc(S(=O)(=O)Nc2ccccc2C(=O)O)cc1,?
CCCCCCCCCCCCOCC1CO1 (centres undefined),-2%
CC(/C=C/C=C(C)/C=C/C(=O)O)=C\C=C\C=C(C)\C=C\C=C(C)\C=C\C(=O)O,25µM*
CCC(Sc1nc2ccccc2s1)C(=O)Nc1nnc(C)s1 (centres undefined),?
COc1ccc(OC)c(N(CC(=O)NCc2cccnc2)S(C)(=O)=O)c1,19%
O=C(O)CC(NS(=O)(=O)c1ccc(Br)cc1)c1ccco1 (centres undefined),13%
COc1ccc(NC(=O)CCN2CCCCC2)cc1,-6%
O=C(CN(C1CC1)S(=O)(=O)c1ccc(S(=O)(=O)NC2CCCCC2)cc1)Nc1ccccc1,?
COc1cc(NC(=O)Nc2cccc(C(C)=O)c2)cc(OC)c1OC,-16%
O=C(COc1cccc(NC(=O)c2ccco2)c1)c1ccccc1,-1%
O=C(c1cc2ccccc2oc1=O)N(Cc1ccco1)C1CCS(=O)(=O)C1 (centres undefined),?
Cc1cccc(C)c1NC(=O)C1(NC(=O)C2CCCN2C(=O)OC(C)(C)C)CCCCC1 (centres undefined),6%
CCCn1cc(SCC(=O)Nc2nnc(C)s2)c2ccccc21,-3%
C=CCNc1nc(-c2c(C)nc3sccn23)cs1,-10%
CCOC(=O)Cc1nnc(NC(=O)CC)s1,12%
Cc1ccc(S(=O)(=O)c2c(C)nn(C(C)(C)C)c2OC(=O)C(C)(C)C)cc1,-6%
Cc1cc(C)nc(N2CCC(C(=O)NC3CCCc4ccccc43)CC2)n1 (centres undefined),5%
CCOC(=O)N1CCN(C(=O)CS(=O)(=O)c2cn(Cc3ccccc3C)c3ccccc23)CC1,-2%

# Continued:
SMILES,HSD17B inhib
O=C1Cc2ccccc2C(=O)N1CCc1ccccc1,?
Cc1ccc(C2C(C#N)=C(N)Oc3nc(-c4ccccc4)[nH]c32)o1 (centres undefined),-27%
CC(C)NC(=O)N1CCC2(CC1)CCN(S(=O)(=O)c1ccccc1)CC2,1%
Nc1cc(C(Cl)=C(Cl)Cl)c(S(N)(=O)=O)cc1S(N)(=O)=O,3%
COc1ccc(C(=O)N2CCC3(CCCN(c4ccccn4)C3)CC2)cc1,?
Cc1c(C(=O)O)oc2ccc(S(=O)(=O)NCc3ccccc3)cc12,-4%
CCCCNC(=O)CCC(=O)Nc1ccc2nc(N3CCOCC3)cc(C)c2c1,25µM*
O=C(NC1CCCCC1)c1cc(-c2ccco2)on1,-2%
Cc1nc2sc(C(c3ccco3)N3CCC(C)CC3)c(O)n2n1 (centres undefined),12%
COc1ccc(C(=O)NCCSc2ccccn2)cc1,11%
O=C(O)c1cc(NCc2c(F)cccc2Cl)ccc1N1CCOCC1,0%
Cc1cc(NC(=O)c2cnn3c(C(F)F)cc(-c4ccccc4)nc23)no1,?
CCN(CCCNC(=O)CCc1nc(-c2ccc(C)cc2)no1)c1cccc(C)c1,3%
O=C1CC(SCc2nc3ccccc3[nH]2)C(=O)N1c1cccc(F)c1 (centres undefined),-25%
COc1cc(S(=O)(=O)Nc2cccnc2)ccc1F,9%
COc1ccccc1-c1ccc2ncnc(N(C)C)c2c1,4%
O=C(C1CCCCC1)N1CCN(c2ccccc2F)CC1,2%
COc1ccc(NC(=O)C2C(=O)N(C)C3(C)CC2c2ccccc2O3)cc1 (centres undefined),-1%
S=C(c1ccc(-c2ccccc2Cl)o1)N1CCOCC1,?
COc1ccc(C(=O)CSc2nccc(=O)[nH]2)cc1,6%
CCCCCCC(C)n1[nH]c(=O)c2c(C)cc(=O)[nH]c21 (centres undefined),1%
CCOC(=O)Nc1cc(C)ccc1OC,-9%
COCc1nc2ccccc2n1Cc1ccccc1Br,-8%
O=C(O)CCSc1nnnn1-c1ccccc1,5%
O=C(Nc1ccc(OC(F)(F)F)cc1)c1cnc2n(c1=O)CCS2,?
COc1cc(S(=O)(=O)Nc2ncccc2C)c(OC)cc1Cl,-1%
CCOC(=O)C1CSC(CC(=O)Nc2ccc(Cl)cc2)C(=O)N1 (centres undefined),-4%
Cc1ccc(S(=O)(=O)NCCCNC(=O)c2ccccc2)cc1,-7%
COc1cc(C(N)=O)cc(Br)c1OC,4%
COc1ccc(N2C(=O)C3CCCN3C2c2ccc(F)cc2)cc1Cl (centres undefined),10%

# As entered above.
# Result of COc1ccc(C(=O)NCCSc2ccccn2)cc1 under HSD17B inhib: 11%
# Result of O=C(O)CCSc1nnnn1-c1ccccc1 under HSD17B inhib: 5%
# Result of COc1ccc(NC(=O)C2C(=O)N(C)C3(C)CC2c2ccccc2O3)cc1 (centres undefined) under HSD17B inhib: -1%
# Result of O=C(O)c1cc(NCc2c(F)cccc2Cl)ccc1N1CCOCC1 under HSD17B inhib: 0%

# New compounds follow:
SMILES,HSD17B inhib
COc1ccc(Cl)cc1C(=O)Nc1ccccc1N1CCN(C)CC1,0%
COc1ccc(S(=O)(=O)N(C)CC(=O)N2CCC(C(N)=O)CC2)cc1,2%
CC1Cc2ccccc2C(=O)N1 (centres undefined),1%
Cn1cccc1Cc1nnc(SCC(=O)Nc2cccc(F)c2)n1CCc1ccccc1,-14%
CCOC(=O)c1c(C)n(C)c2ccc(OC(=O)c3ccoc3)cc12,-8%
O=C(CCn1cccc1)NC1CCCc2ccccc21 (centres undefined),-16%
O=C(NCc1ccccc1Cl)C1CCN(C(=O)c2sccc2-n2cccc2)CC1,-1%
N#Cc1cc(C(=O)c2cc(Br)ccc2O)cn(C2CC2)c1=O,-13%
CC1(C)CC2(CC(C)(C)N1)OC(=O)N1CCc3ccccc3C12C (centres undefined),12%
CC(C)(CC(=O)O)Cc1nc(-c2ccc(Cl)cc2)no1,2%
COC(=O)C1C(=O)NC(SC)=C(C#N)C1c1ccccc1 (centres undefined),2%
CC(=O)OC[C@H]1O[C@@H](CCO/N=C2/[C@H]3O[C@@H]3[C@@H](O)[C@H]3[C@H]2CCn2c(=O)n(-c4ccccc4)c(=O)n23)C=C[C@@H]1OC(C)=O,-4%[11.4 µM]
CCc1nnc(NC(=O)CSc2nnc(Cc3cccn3C)n2C)s1,?
CCCCNc1nc(C)nc2c1nc(-c1ccccc1)n2CC1CCCN1CC (centres undefined),20µM*
CC(=O)N(C)c1ccc(NS(=O)(=O)Cc2ccccc2)cc1,1%
COc1cc(CNC2CCCC2)cc(OC)c1OC,-7%
CCCN(CCC)S(=O)(=O)c1ccc(NS(C)(=O)=O)cc1,1%
C=CCn1c(=O)c2ccccc2n2c(SCc3nnc(-c4ccccc4Br)o3)nnc12,-7%
O=S1(=O)CC(O)C(N2CCC(c3ccccc3)CC2)C1 (centres undefined),14%
O=C(COC(=O)c1ccc(S(=O)(=O)NCc2ccco2)cc1)Nc1ccccc1OC(F)F,?
Cc1oc(-c2ccccc2F)nc1CN1CCC(C(=O)NCc2cccs2)CC1,7%
O=c1c(-c2cc(F)cc(F)c2)nc2cncnc2n1C1CC1,5%
CN1/C(=C\C(=O)CN2C(=O)NC3(CCCCCC3)C2=O)C(C)(C)c2ccccc21,?
COc1cc2c(=O)n(Cc3ccco3)c(=O)n(CC(=O)c3cccc(Br)c3)c2cc1OC,-4%
CCN(CC)S(=O)(=O)c1ccc2c(c1)nc(SCc1nc3ccsc3c(=O)[nH]1)n2CC,-17%
COC(=O)COc1ccc2occ(C(C)=O)c2c1,-11%
CCN(c1nc(N)c(C(=O)N=C(N)N)nc1Cl)C(C)C,-6%
CCOC(=O)c1c(NC(=O)CSc2nnc(-c3cccnc3)o2)sc(C)c1C,0%
CN(C)S(=O)(=O)c1cccc(C(=O)NCCc2ccccc2)c1,-12%
CCOc1ccc(CCNS(=O)(=O)c2cnc[nH]2)cc1OCC,9%
Cc1nnc(Sc2nc(Sc3nnc(C)s3)nc(N3CCN(C)CC3)n2)s1,5%
CCOC(=O)Cc1csc(NC(=O)COc2ccccc2OC)n1,-2%
O=C1CC(C(=O)Nc2ncccn2)C(c2ccccc2)O1 (centres undefined),6%
CC(C)NC[C@@H](O)c1ccc(O)c2ncccc12,0%[11.4 µM]
O=C(c1ccccc1F)N1CCN(S(=O)(=O)c2ccc(S(=O)(=O)N3CCCCC3)cc2)CC1,2%
CCOc1ccc(C(=O)Nc2c3c(nn2-c2cccc(Cl)c2)CS(=O)C3)cc1 (centres undefined),17%
CCOC(=O)c1c(P(=O)(N2CCOCC2)N2CCOCC2)noc1N,0%
COc1ccc(Cl)cc1S(=O)(=O)NCc1cccs1,-8%
CCOC(=O)CC(=O)CSc1nc(-c2cccnc2)cc(C)c1C#N,?

# In another format: entries from further up
> C=CCNc1nc(-c2c(C)nc3sccn23)cs1
  HSD17B inhib: -10%

> CCOC(=O)Cc1nnc(NC(=O)CC)s1
  HSD17B inhib: 12%

> CC(C)NC(=O)N1CCC2(CC1)CCN(S(=O)(=O)c1ccccc1)CC2
  HSD17B inhib: 1%
